Screening data deposited in PubChem BioAssay by several laboratories.
YopH PTP inh – YopH (Yersinia) phosphatase inhibition. fluorescence Ex485/Em525. inhibition, %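 (about 10 µM by stock and volumes)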. 140,000 compounds, 0.16% hits;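 active = inhibition of 50% or more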;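 also: controls were vehicle for no effect and minimum signal wells for full effect; inactives centre near -20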
Mtb betalactam – beta-lactam sensitization of Mtb H37Rv. M. tuberculosis H37Rv growth with meropenem, percent inhibition; hits of this screen are not shown here. inhibition, % at 25 µM. 330,000 compounds, 0.27% hits. AID 434955;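 active = about 74% or more and at least 40 points above the plate without the antibiotic, then above 30% in a dose series; inconclusive = first-round hits that could not be retested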;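 also: growth measured after seven days incubation then overnight dye step; 0% = bacteria only wells and 100% = bacteria with antibiotic; twin plates without the antibiotic show which effects depend on it; some results filed as inactive read as strong as hits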
RecA splice inh – blocks M. tuberculosis RecA intein splicing. inhibition, %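 (about 9 µM by stock and volumes)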. 290,000 compounds, 0.75% hits. P9WHJ3. AID 2221. cell-free RecA intein splicing, fluorescence; in the data active = inhibition above about 30%; inconclusive = no clear call, values can overlap the other calls;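 also: 0% = vehicle wells and 100% = reference inhibitor control wells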
Target sequence (P9WHJ3 whole entry, looked up, canonical isoform): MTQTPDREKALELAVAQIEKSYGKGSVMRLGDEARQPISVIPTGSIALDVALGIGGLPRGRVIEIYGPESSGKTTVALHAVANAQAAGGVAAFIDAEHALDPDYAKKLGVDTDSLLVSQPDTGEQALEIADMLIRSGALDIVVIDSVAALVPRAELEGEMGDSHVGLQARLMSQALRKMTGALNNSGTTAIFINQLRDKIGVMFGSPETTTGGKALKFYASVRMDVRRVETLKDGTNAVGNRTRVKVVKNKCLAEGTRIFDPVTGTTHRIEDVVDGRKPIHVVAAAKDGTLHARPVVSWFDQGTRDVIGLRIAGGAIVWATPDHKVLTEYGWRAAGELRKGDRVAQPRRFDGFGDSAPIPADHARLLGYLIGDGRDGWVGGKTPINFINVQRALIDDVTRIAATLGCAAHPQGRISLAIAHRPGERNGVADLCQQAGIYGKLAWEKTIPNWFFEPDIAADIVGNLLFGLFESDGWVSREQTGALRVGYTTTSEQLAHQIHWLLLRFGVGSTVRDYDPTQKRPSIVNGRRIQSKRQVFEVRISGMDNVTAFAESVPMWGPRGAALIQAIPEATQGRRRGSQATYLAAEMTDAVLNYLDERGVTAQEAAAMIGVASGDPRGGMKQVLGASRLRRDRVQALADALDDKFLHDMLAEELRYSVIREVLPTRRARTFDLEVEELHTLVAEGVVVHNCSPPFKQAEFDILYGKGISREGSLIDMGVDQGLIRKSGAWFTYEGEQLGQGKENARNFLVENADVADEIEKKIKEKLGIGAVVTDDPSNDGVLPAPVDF
Arbovirus inh – antivirals against arbovirus infection; inhibition, % at 10 µM; 200,000 compounds, 0.37% hits; arbovirus infection cell-based antiviral screen;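 active = inhibition from about 30%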;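 also: bluetongue infection of BSR cells; cell survival read as ATP light after 72 h; 0% = infected wells without compound and 100% = uninfected wells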
Mtb H37Rv – M. tuberculosis H37Rv growth inhibitors, H37Rv strain (AID 1626). M. tuberculosis H37Rv growth inhibition; higher % means a stronger effect. inhibition, % at 10 µM; hits with a dose series show IC50 in µM. 220,000 compounds, 0.95% hits;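 active = confirmed in a dose series; inconclusive = inhibition above 80% but not taken into the dose series; inactive = below 80% or under 30% at every dose of the series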;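 also: bacteria incubated seven days before Alamar blue readout; 0% = bacteria only wells and 100% = bacteria with antibiotic wells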
An asterisk follows results filed as active; ? = inconclusive; nt = not tested or not shown.

SMILES	YopH PTP inh	Mtb betalactam	RecA splice inh	Arbovirus inh	Mtb H37Rv
Cc1ccc(NCC(=O)N/N=C/c2ccc(-c3cccc(C(F)(F)F)c3)o2)cc1	1	15	3.4	13	7%
CSC1=C(C#N)C(c2ccccc2Cl)C(C(=O)c2cccs2)C(O)(C(F)(F)F)N1 (configuration not stated)	-11	-11	5.3	-12	-5%
CCN1CCN(Cc2nc3c(c(=O)[nH]c(=O)n3C)n2Cc2ccccc2Cl)CC1	-1	-7	0.9	nt	-6%
Cc1ccc(C(NC(=O)c2ccccc2)C(Cl)Cl)cc1 (configuration not stated)	1	2	-0.2	20	3%
Cc1cc(S(=O)(=O)N2CCOCC2)ccc1OCC(=O)NCCN1CCOCC1	nt	-14	-2.4	nt	nt
COc1cc(-c2nc(CCNC(=O)c3ccco3)cs2)cc(OC)c1OC	nt	0	-0.2	nt	nt
Cc1cccc(Nc2nc(N3CCCC3)nc(N3CCCC3)n2)c1	-11	nt	1.1	-4	16%
COc1ccc(/C(=N\O)c2ncc(C(F)(F)F)cc2Cl)cc1	3	2	6.1	5	-7%
Cc1ccccc1OCCOCCN1CCCCCC1	nt	-5	2.3	0	3%
O=c1c2nnn(-c3ccc(Cl)cc3)c2ncn1Cc1ccccn1	nt	4	0.3	-3	-3%
CCOC(=O)N1CCN(C(=O)c2cc(OC)c(OC)c(OC)c2)CC1	nt	1	-3.6	nt	nt
Cn1c(=O)c2c(nc(CN3CCc4ccccc4C3)n2Cc2ccc(F)cc2)n(C)c1=O	-9	5	9.5	nt	1%
Cn1nc(C(F)(F)F)c(-c2ccccc2)c1NC(=O)c1cccnc1	nt	3	2.4	nt	-13%
CC1=CC(C)(C)N(C(=O)CSc2nnc(N)s2)c2c(C)cc(C)cc21	13	nt	nt	-7	-4%
Cc1cc(C)c[n+](C[n+]2cc(C)cc(C)c2)c1	nt	0	-1.0	9	-6%
COc1ccccc1C(=O)Nc1ccc2[nH]ncc2c1	nt	7	-1.3	nt	nt
Cn1c(=O)c2c(nc(NN=C3CCCC3)n2C)n(C)c1=O	nt	1	-4.2	nt	-8%
CC1CCN(S(=O)(=O)c2cc(C(=O)N3CCN(c4ncccn4)CC3)ccc2Br)CC1	-13	4	3.5	0	2%
Cc1ccc(C(=O)O)cc1NC(=S)NCCc1ccccc1	nt	-5	0.9	nt	nt
CNS(=O)(=O)c1cc(NC(=O)CCNC(=O)c2ccco2)ccc1C	nt	-12	-0.5	nt	nt
CCOC(=O)c1nnn(-c2nonc2N)c1CNC(C)C	-25	-4	-3.0	9	-7%
Cc1cc(S(=O)(=O)N2CCCCC2)ccc1OCC(=O)N1CCCC1	nt	15	2.3	nt	nt
Fc1cccc(Nc2ncnc3sccc23)c1	nt	6	-1.9	nt	nt
Cc1cccc(N2C(S)=C(C#N)C(=O)NC2c2cccs2)c1 (configuration not stated)	-21	-1	nt	-9	0%
COc1ccccc1/C=C/CN1CCN(Cc2ccc(F)cc2)C(CCO)C1 (configuration not stated)	nt	5	1.5	2	0%
Cc1ccc(CSC2=NCCN2C(=O)c2ccc(S(=O)(=O)N(C)C)cc2)cc1	nt	5	1.0	2	7%
O=C(NCc1ccccc1)N1CCC(CO)(CCc2ccccc2)CC1	nt	-18	1.7	4	3%
COC(=O)c1c(N(S(C)(=O)=O)S(C)(=O)=O)sc2c1CCN(c1ncc(C(F)(F)F)cc1Cl)C2	0	49	7.4	48*	-9%
CCOC(=O)N1CCC(N2CCN(S(=O)(=O)c3ccc(NC(C)=O)cc3)CC2)CC1	-37	-9	4.5	15	-16%
O=C(Oc1cccc2cccnc12)c1ccc(Br)o1	-30	22	4.3	13	0%
O=C1C=Cc2ccccc2/C1=C/c1[nH]c(=O)[nH]c1O	nt	-2	3.9	nt	2%
CC(CCc1ccccc1)NC(=O)CCCCCNc1nc(=S)[nH]c2ccccc12 (configuration not stated)	nt	-7	nt	-1	-3%
CC(C)C1C(C#N)=C(N)Oc2n[nH]c(C(C)(C)C)c21 (configuration not stated)	-60	2	nt	1	3%
COCc1c(C(=O)N/N=C/c2ccco2)nnn1-c1nonc1N	nt	-1	-1.3	nt	nt
CC(C)CC(N=C1NC(C)(C)Cc2ccccc21)C(=O)O (configuration not stated)	-3	-9	-3.5	3	-7%
COc1ccc2c(c1)c(CC(=O)Nc1cc(C)ccc1C)c(C)n2C(=O)c1ccc(Cl)cc1	-19	4	-1.3	-9	-3%
Cc1nc(=O)c(-c2ccccc2)c(C)n1-c1cccc(/C=C/C(=O)O)c1	nt	-6	-0.3	nt	nt
C[n+]1cn(CC(O)COCc2ccccc2)c2ccccc21 (configuration not stated)	-16	2	0.5	0	nt
COc1ccc(Cl)cc1S(=O)(=O)Nc1ccc(Cl)cn1	nt	5	0.9	nt	nt
CCOC(=O)c1c(C)[nH]c(C)c1C(=O)COC(=O)c1ccc(OC)c(OC)c1	nt	45	2.9	9	12%
Cn1c(SCC(=O)N/N=C/c2ccncc2)nc2ccccc21	nt	-2	2.7	nt	-5%
N#Cc1ccc(COC(=O)c2cccnc2Cl)cc1	nt	-1	-1.1	nt	nt
O=C(O)c1cccc(NC(=S)NC(NC(=O)c2ccco2)C(Cl)(Cl)Cl)c1 (configuration not stated)	nt	-4	0.6	nt	0%
O=C(NCc1cccs1)C1CC(c2ccccc2O)=NO1 (configuration not stated)	7	4	-3.9	-13	nt
COC(=O)CCC(=O)OC1(C)C(=O)C=C2C=C(c3ccsc3)OC=C2C1=O (configuration not stated)	nt	1	0.3	nt	-11%
COc1cccc2c(O)c(-c3ccccc3)c(=O)[nH]c12	nt	47	0.8	nt	nt
CSc1nc(C)cc(SCC(=O)Nc2ccccc2)n1	-11	0	1.8	-8	-5%
COCCNC(=O)Cn1nc(-c2ccccc2)c2ccccc2c1=O	nt	-7	0.3	nt	nt
Cc1ccc(N2C(=O)Nc3ccccc3C2(O)C(=O)N2CCN(c3ccccn3)CC2)cc1C (configuration not stated)	nt	-1	0.8	1	-3%
N#Cc1c(N)nc(SCC(=O)NCCc2ccccc2)c(C#N)c1-c1cccs1	-7	0	3.8	-9	nt
O=C(CCC(=O)Nc1ccc(Br)cc1)N/N=C/c1ccccc1F	nt	-2	1.7	nt	nt
CCCCN(CCCC)C(=O)CSc1nnc(-c2cc(OC)c(OC)c(OC)c2)o1	-37	-9	3.2	1	5%
COC(=O)c1ccc(NC(=O)c2cc(-c3ccccn3)nc3ccccc23)cc1	nt	2	1.2	-11	3%
CCOC(=O)N1CCN(S(=O)(=O)c2ccc(F)c(C(=O)Nc3cccc(C)c3C)c2)CC1	-30	-7	1.1	-1	-8%
Cc1ccc(-n2nc(C)c(C(=O)N3CCN(C(=O)c4ccco4)CC3)c2-n2cccc2)cc1	nt	-16	1.1	nt	nt
O=C(CCCN1C(=O)C(c2ccccc2)Oc2cccnc21)NCCc1ccc(Cl)cc1 (configuration not stated)	nt	4	-0.4	nt	nt
Cc1nn(C)c(C)c1/C=C(/C(=O)C(C)(C)C)n1cncn1	nt	8	-3.3	nt	-6%
O=C(CSc1nc(O)cc(=O)n1-c1ccccc1)Nc1nc2ccccc2s1	nt	-5	-2.8	nt	-7%
CN(C(=O)c1cc(COc2ccc(F)c(F)c2)on1)C1CCOC1 (configuration not stated)	nt	4	-0.7	nt	nt
O=C(NCCCO)c1c(O)c2cccc3c2n(c1=O)CCC3	nt	2	1.1	nt	nt

Filtered by structure: the entries above with a COOH group.
SMILES	YopH PTP inh	Mtb betalactam	RecA splice inh	Arbovirus inh	Mtb H37Rv
Cc1ccc(C(=O)O)cc1NC(=S)NCCc1ccccc1	nt	-5	0.9	nt	nt
CC(C)CC(N=C1NC(C)(C)Cc2ccccc21)C(=O)O (configuration not stated)	-3	-9	-3.5	3	-7%
Cc1nc(=O)c(-c2ccccc2)c(C)n1-c1cccc(/C=C/C(=O)O)c1	nt	-6	-0.3	nt	nt
O=C(O)c1cccc(NC(=S)NC(NC(=O)c2ccco2)C(Cl)(Cl)Cl)c1 (configuration not stated)	nt	-4	0.6	nt	0%

More records.
SMILES	YopH PTP inh	Mtb betalactam	RecA splice inh	Arbovirus inh	Mtb H37Rv
CC(C)(C)C(=O)NC(=S)NNC(=O)C(c1ccccc1)c1ccccc1	nt	31	7.2	-29	17%
Cc1cnc(C(=O)OCC(=O)c2ccc(C3CCCCC3)cc2)cn1	nt	2	-0.9	nt	nt
COc1ccc(OC)c(NC(=O)C(CCS(C)(=O)=O)NC(C)=O)c1 (configuration not stated)	nt	-2	-0.8	10	-2%
O=C(CSc1nnc(-c2ccccc2)o1)N1CCOCC1	-37	-8	1.9	-3	-13%
CCNC(=S)N(CCN(CC)CC)Cc1cc2cc3c(cc2[nH]c1=O)OCO3	nt	0	-3.7	nt	nt
CCc1ccc(NC(=S)Nc2cc(C(=O)O)ccc2N2CC3CC(C2)c2cccc(=O)n2C3)cc1 (configuration not stated)	nt	96	2.4	5	75%
CCCNC(=S)Nc1ccc(Nc2ccccc2)cc1	-28	99	-1.8	-11	52%
c1ccc(-c2nn3cnnc3c3ccccc23)cc1	nt	-2	0.8	0	-1%
CC1CN(CC(=O)NCc2ccc(Cl)cc2)CC(C)O1 (configuration not stated)	nt	-2	-1.4	nt	nt
COc1ccc(CCNC(=O)CSC2=NS(=O)(=O)c3cc(Cl)ccc3N2)cc1OC	nt	-3	-0.1	nt	nt
Cc1ccc(Nc2nc(N)nc(CN3CCc4ccccc4C3)n2)cc1	-15	94	nt	-6	?
CN(CC(=O)Nc1cccc(F)c1)C(=O)CCCc1cccs1	-27	3	-9.0	-11	-5%
COc1cc(/C=C(\C#N)C(=O)Nc2ccc3c(c2)OCCO3)ccc1O	nt	-8	32*	nt	14%
CCn1nc(C(=O)N2CCN(Cc3ccc4c(c3)OCO4)CC2)c2ccccc2c1=O	-46	-9	-2.4	-6	-2%
CCn1c(SCC(=O)Nc2ccc(C)cc2)nc2sc3c(c2c1=O)CCN(C)C3	nt	8	15	nt	nt
O=C(NCCN1CCOCC1)c1ccc2c(c1)N(Cc1ccc(F)cc1)C(=O)c1ccccc1S2(=O)=O	nt	1	4.6	nt	nt
CCNS(=O)(=O)c1cccc(C(=O)c2c(C)cc3ccccn23)c1	-37	-7	4.0	2	-3%
COc1ccc(C(=O)N/N=C/c2ccccc2OC(=O)c2ccccc2)cc1	nt	16	12	nt	nt
O=C(Cn1cc(C(=O)C(F)(F)F)c2ccccc21)Nc1ccccc1F	nt	2	0.8	nt	nt
Cn1c(=O)[nH]c(=O)c2c1nc(SCC(O)CO)n2Cc1ccccc1Cl (configuration not stated)	10	-4	-0.5	-8	15%
C/C(=N/OCO/N=C(\C)c1ccc(F)cc1F)c1ccc(F)cc1F	-16	4	-0.9	1	nt
COc1ccc(OC)c(S(=O)(=O)N(C)CC(=O)Nc2ccccc2OC)c1	-2	-2	2.6	-4	-7%
Cc1ccc(-c2ccccc2[C@@H]2C[C@H]3CN(C)C(=O)[C@]34CCCN24)o1	nt	-2	-0.3	-2	-6%
FC(F)(F)c1nc(N2CCCC2)ncc1-c1nnnn1-c1ccccc1	-23	-5	5.6	4	-23%
CC(C)(C)C(=O)NCCCNc1ccc([N+](=O)[O-])cc1	nt	-5	0.2	2	2%
CC1=CC(C)(C)NC(=S)N1c1ccccc1	-16	1	-0.5	7	-5%
Fc1cccc(NC(=S)N2CCn3cccc3C2c2cccnc2)c1 (configuration not stated)	nt	7	0.7	15	-2%
COc1ccc(CN(CC(=O)NCCC(C)C)C(=O)CCC(=O)Nc2nccs2)cc1	nt	-2	-0.6	nt	nt
COc1ccc(OC)c(NC(=O)c2ccc3c(c2)C(=O)N(CC2CCCO2)C3=O)c1 (configuration not stated)	nt	-6	-0.6	nt	nt
CN1N=C2c3ccccc3CCC2C1c1ccc(F)cc1 (configuration not stated)	nt	-4	-2.6	nt	5%
CCCN1C2CCCC1CC(NC(C)=O)C2 (configuration not stated)	-32	-3	2.1	10	0%
CC1CN(S(=O)(=O)c2ccc(C(=O)Nc3sccc3C(N)=O)cc2)CC(C)O1 (configuration not stated)	-4	-1	-2.8	-11	-6%
CCN1CCCC1CNc1ccc(S(C)(=O)=O)cc1[N+](=O)[O-] (configuration not stated)	nt	5	-1.6	nt	nt
O=C(N/N=C\C=C\c1ccc2c(c1)OCO2)c1ccc(F)cc1	nt	0	-0.3	-12	-2%
CCCCOc1ccc(N(CC(=O)NCC2CCCO2)C(=O)CCC(=O)Nc2nccs2)cc1 (configuration not stated)	nt	0	-0.5	6	-4%
CCCn1c(C)cc(C(=O)COc2ncnc3sccc23)c1C	13	8	-0.5	3	-2%
CCOC(=O)c1c(CS(=O)(=O)c2ccccc2)n(C)c2cc(Br)c(O)cc12	nt	-2	-1.0	nt	nt
CC1(C)Cc2c(c(-c3ccco3)[nH]c(=O)c2C#N)CS1	-23	-6	-23	9	-4%
O=C(c1ccccc1)C1CCN(C(=O)c2c(F)cccc2F)CC1	nt	-4	1.7	nt	nt
OCCN1CCN(CC(O)COCc2ccc3c(c2)OCO3)CC1 (configuration not stated)	-1	4	-0.8	-2	-6%

An excerpt (hit frequency here may not be typical).
